# hNpr1 antagonist: antagonists of human natriuretic peptide receptor Npr1 | hit rate 1.6% among 76,000 | HEK293 hNpr1 GloSensor cGMP, ANP-stimulated luminescence | AID 1347048 | Potency, µM (titrated, usually from 46.3 µM), inactives show top-dose activity change, negative = inhibition, usual class: inhibitors | P16066; active = well fitted inhibition curve with a large enough effect; inconclusive = small, poorly fitted or top-dose-only effect; inactive = no such curve, though single readings can be large or run the other way;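 note: nearly all actives have a fitted effect of over 60% in size; nearly all hits also lower the signal before the agonist is added; a reference antagonist and vehicle were the controls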
# Target sequence (P16066 whole entry, looked up): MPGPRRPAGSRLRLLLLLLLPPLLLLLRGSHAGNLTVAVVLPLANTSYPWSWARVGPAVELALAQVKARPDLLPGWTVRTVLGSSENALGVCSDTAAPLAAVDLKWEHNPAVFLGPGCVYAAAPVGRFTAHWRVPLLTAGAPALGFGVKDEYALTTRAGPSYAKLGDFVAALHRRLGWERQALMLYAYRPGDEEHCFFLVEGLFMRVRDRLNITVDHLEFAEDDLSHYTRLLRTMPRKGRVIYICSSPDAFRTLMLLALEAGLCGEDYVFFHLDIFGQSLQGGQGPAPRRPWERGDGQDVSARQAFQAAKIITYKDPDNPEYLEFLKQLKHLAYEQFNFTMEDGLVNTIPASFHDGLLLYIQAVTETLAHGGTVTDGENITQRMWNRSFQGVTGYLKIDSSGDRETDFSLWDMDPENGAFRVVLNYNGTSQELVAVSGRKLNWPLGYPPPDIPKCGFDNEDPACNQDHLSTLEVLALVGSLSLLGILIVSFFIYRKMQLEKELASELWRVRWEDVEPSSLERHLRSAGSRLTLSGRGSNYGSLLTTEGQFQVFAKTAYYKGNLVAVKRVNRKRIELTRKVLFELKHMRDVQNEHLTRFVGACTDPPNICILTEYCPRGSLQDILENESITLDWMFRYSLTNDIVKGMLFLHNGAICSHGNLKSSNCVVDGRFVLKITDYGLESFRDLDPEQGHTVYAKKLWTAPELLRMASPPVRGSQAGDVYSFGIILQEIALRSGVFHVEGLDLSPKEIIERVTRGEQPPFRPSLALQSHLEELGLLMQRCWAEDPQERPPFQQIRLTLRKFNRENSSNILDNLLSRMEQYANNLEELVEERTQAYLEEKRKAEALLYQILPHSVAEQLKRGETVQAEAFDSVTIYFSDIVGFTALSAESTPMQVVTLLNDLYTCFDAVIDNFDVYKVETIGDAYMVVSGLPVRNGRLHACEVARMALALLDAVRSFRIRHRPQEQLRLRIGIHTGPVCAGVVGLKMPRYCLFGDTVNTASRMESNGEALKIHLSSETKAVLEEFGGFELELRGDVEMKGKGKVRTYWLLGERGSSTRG
#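 Compound pre-incubated 30 min at room temperature on GloSensor-loaded HEK293 cells stably carrying hNpr1 and the pGS-40F cGMP biosensor. Stimulation uses hNppA at 0.1 nM final; luminescence is taken at baseline and 20 min post-agonist.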
# Numbers without * were called inactive; ? = inconclusive; [ ] = another dose, or the depositor's remark. % is set by controls: 0 for no effect and ±100 for the full control effect; potency is the fitted concentration of half-maximal effect. A portion of the library; the hit share may differ from the screen's.
SMILES,hNpr1 antagonist
Cc1ccccc1CC(=O)N[C@@H]1CN(c2ccncn2)C[C@H]1CO,-13%
COC[C@@H]1CN(Cc2ccncc2F)C[C@H]1C(=O)NC1CC1,-1%
C[C@@]1(O)CCN(C2CCN(c3ccc(F)cc3)CC2)C[C@@H]1O,-2%
COc1ccc(-c2cn3cc(C(=O)N4CC[C@H](O)C4)nc3c(=O)n2CC2CC2)cc1,-3%
Cc1cccc(NC(=O)N2CCC(CCNC(=O)c3cccs3)CC2)c1,4%
COCCCNC(=O)N1CCCN(S(=O)(=O)c2ccccc2)CCC(=O)NCC1,-17%
CC(C)CN1C(=O)c2cccn2CC1C(=O)NCc1cccs1 (configuration not stated),-10%
CNC(=O)[C@@H]1C[C@H](Oc2cccnc2)CN1S(=O)(=O)c1ccccc1,4%
Cc1ccc(CC(=O)NCc2nnc3c(-c4nc(C(C)C)no4)cccn23)cc1,-1%
CS(=O)(=O)Nc1ccc(C2(C(=O)NCc3ccc4c(c3)OCO4)CCCCC2)cc1,2%

# Grouped by structure: the entries above containing nitrogen in an aromatic ring (six)
SMILES,hNpr1 antagonist
Cc1ccccc1CC(=O)N[C@@H]1CN(c2ccncn2)C[C@H]1CO,-13%
COC[C@@H]1CN(Cc2ccncc2F)C[C@H]1C(=O)NC1CC1,-1%
COc1ccc(-c2cn3cc(C(=O)N4CC[C@H](O)C4)nc3c(=O)n2CC2CC2)cc1,-3%
CC(C)CN1C(=O)c2cccn2CC1C(=O)NCc1cccs1 (configuration not stated),-10%
CNC(=O)[C@@H]1C[C@H](Oc2cccnc2)CN1S(=O)(=O)c1ccccc1,4%
Cc1ccc(CC(=O)NCc2nnc3c(-c4nc(C(C)C)no4)cccn23)cc1,-1%

# Additional structures follow:
SMILES,hNpr1 antagonist
O=C1CCN(C(=O)COc2ccc(F)cc2)CCCC(c2nc(-c3cccnc3)no2)CCN1 (configuration not stated),0%
CN1C[C@@H](CO)[C@H](NC(=O)c2ccccc2)C1,10%
CC(c1cccs1)N(C)C(=O)c1cccc(Cl)c1 (configuration not stated),-2%[70.6 µM]
COc1ccc(-c2ccccc2NC(=O)C2CCCN2C(=O)C2(C)CC2)cc1 (configuration not stated),-5%
COc1cccc(CN2Cc3nc(N4CCN(C)CC4)ccc3OCC2=O)c1,1%[70.6 µM]
c1ccc2sc(N3CCCN(Cc4cc5n(n4)CCNC5)CC3)nc2c1,3%
COC(=O)[C@H](NC(=O)[C@@]1(O)C[C@@H](O)[C@H](O)[C@@H](NC(=O)Nc2ccc(C(C)=O)cc2)C1)C(C)C,3%
COc1cccc(-c2cnc3n[nH]c(-c4ccccc4)c3n2)c1,-5%[70.6 µM]
Cc1cn2nc(C(=O)Nc3ccccc3C)cc2c(N2CCSCC2)n1,-11%
CCC(=O)N1CCC(Cc2ncc(C)n2C2CC2)C1 (configuration not stated),3%
CN(c1ccccc1)S(=O)(=O)C1CCS(=O)(=O)C1 (configuration not stated),1%
CCNC(=O)CC1COCCN1C(=O)c1csc(-c2cccs2)n1 (configuration not stated),1%
COc1ccc(F)c(CN2CCCC(O)(CN3CCCNCC3)C2=O)c1 (configuration not stated),6%
CS(=O)(=O)c1ccc(OCC2(CNC(=O)c3cccc(F)c3)C[C@@H](O)[C@@H](O)C2)cc1 (some centres not stated),7%
COc1ccc(-c2cc(N3CCCC(NC(=O)c4cc(OC)c(OC)c(OC)c4)C3)n[nH]2)cc1 (configuration not stated),-4%
COCCc1nncn1C1CCN(S(=O)(=O)c2cccc(OC)c2)CC1,-9%
CCn1cc(-c2ccncc2)cc1C(=O)NCc1cccc(OC)c1,-13%
CN1CCN([C@H]2CCN(c3ccnc4ccccc34)C[C@H]2CCC(=O)O)CC1,4%
CN1CCCC1COc1ccc2c(n1)CN(Cc1ccc(F)cc1)C(=O)CO2 (configuration not stated),1%[70.6 µM]
O=C(CN1CCCc2nc(-c3ccccc3)ncc2C1=O)NCCc1c[nH]c2ccccc12,10µM*
CC1(C)N=C(c2ccccc2)C(=O)N1CC(=O)NC1CCCC1,5%
COc1ccc(C(=O)N2CCC(CC(=O)NCc3ccccc3)C2)cc1 (configuration not stated),6%
COc1cccc(CN2CCc3c(cc(C(=O)N4CCOCC4)n3C)C2)c1,0%
O=C(CCc1ccccc1)N1CCC(N2CC3CC(C2)[C@H]2CCCC(=O)N2C3)CC1 (some centres not stated),0%
CN(C)c1nccnc1OC1CCN(C(=O)CCc2ccccc2)C1 (configuration not stated),-1%
Cc1ccsc1C(=O)Nc1ccc2ncnc(N3CCCCC3)c2c1,?
CCOC1CCN(C(=O)c2cnc(Cc3c(Cl)cccc3Cl)[nH]c2=O)CC1,-1%
COc1cccc(CNC(=O)c2ccc3c(c2)N(C(=O)c2ccc(F)cc2)CC3)c1,-11%
COc1cccc(N2CC3(C2)CN(c2ccccc2)C(=O)O3)c1,-3%[70.6 µM]
O=C(Nc1ccc(-c2nnc3n2CCCC3)cc1)C1CCCCC1,3%

# Reformatted as tab-separated lines: entries from further up
Structure	hNpr1 antagonist
COC[C@@H]1CN(Cc2ccncc2F)C[C@H]1C(=O)NC1CC1	-1%
c1ccc2sc(N3CCCN(Cc4cc5n(n4)CCNC5)CC3)nc2c1	3%

# (cont.)
SMILES,hNpr1 antagonist
COc1ccc(NC(=O)c2cc(NC(=O)C3CCC3)cc3nc(C)ccc23)cc1,-5%
O=C(c1ccccc1-c1ncc[nH]1)N1CCOC(c2ccc(Cl)cc2)C1 (configuration not stated),?
COc1ccc(C(=O)N[C@@H](Cc2ccccc2)C(=O)N2CCCOCCNC(=O)CC2)cc1F,-1%
CN(C)c1ccc(CN2C[C@H](O)C[C@H]2c2nc(-c3ccncc3)no2)cc1,2%[70.6 µM]
CC(=O)N(C)Cc1ccc(F)cc1,0%[70.6 µM]
Cc1noc(C)c1-c1cc2cc(C(C)C)oc2c(NCCc2ccccn2)n1,-2%[70.6 µM]
CCC(O)C1CCN(Cc2cnc(S(=O)(=O)CC)n2CCc2ccccc2)CC1 (configuration not stated),1%
Cc1ccc(N2CC(c3noc(-c4cccc(N(C)C)c4)n3)CC2=O)cc1 (configuration not stated),-13%
Cc1ccc(S(N)(=O)=O)cc1C(=O)N[C@H]1[C@H]2CCO[C@H]2[C@@H]1N1CCCC1,5%
O=C(Nc1ccccc1)N[C@H]1C[C@H]2C(=O)NC[C@@H](CCC(=O)N3CCN(c4ccccc4)CC3)N2C1,2%

# Look-ups from above.
# `CC(=O)N(C)Cc1ccc(F)cc1` | hNpr1 antagonist = 0%[70.6 µM]
# `Cc1ccc(N2CC(c3noc(-c4cccc(N(C)C)c4)n3)CC2=O)cc1` (configuration not stated) | hNpr1 antagonist = -13%
# `Cc1ccc(S(N)(=O)=O)cc1C(=O)N[C@H]1[C@H]2CCO[C@H]2[C@@H]1N1CCCC1` | hNpr1 antagonist = 5%
# `O=C(Nc1ccccc1)N[C@H]1C[C@H]2C(=O)NC[C@@H](CCC(=O)N3CCN(c4ccccc4)CC3)N2C1` | hNpr1 antagonist = 2%
# `CCC(O)C1CCN(Cc2cnc(S(=O)(=O)CC)n2CCc2ccccc2)CC1` (configuration not stated) | hNpr1 antagonist = 1%

# The listing picks up; the two compounds before the break are reprinted first.
SMILES,hNpr1 antagonist
Cc1ccc(S(N)(=O)=O)cc1C(=O)N[C@H]1[C@H]2CCO[C@H]2[C@@H]1N1CCCC1,5%
O=C(Nc1ccccc1)N[C@H]1C[C@H]2C(=O)NC[C@@H](CCC(=O)N3CCN(c4ccccc4)CC3)N2C1,2%
COc1cccc(CN2CCC3(CC2)CC(O)CCO3)n1 (configuration not stated),0%
CCN1C(=O)CCc2cc(NS(=O)(=O)c3cn(C)c(C)n3)ccc21,6%
C#CCNC(=O)[C@H]1O[C@H](CCN2CCNCC2)CC[C@@H]1O,0%[70.6 µM]
COCCn1cc(CN(C)CC(=O)N2CCCCCC2)ccc1=O,3%
CCn1nccc1C(=O)NCCC1CCN(C(=O)Nc2ccc(F)cc2F)CC1,-7%
CC(C)CCN(C1CCOCC1)C1CCN(S(=O)(=O)c2cccnc2)CC1,6%
O=C(COc1ccc(-n2cnnn2)cc1)N1CCCC2(CCNCC2)CC1,7%
CC1=NOC2(CCN(Cc3ccccn3)CC2)C1,0%[70.6 µM]
Cc1cc(-c2cc3c(nc2-c2ccccc2)nc(C(=O)NC2CCN(C)CC2)n3C)ccn1,6%[70.6 µM]
COCCOCc1nc(C2CCN(C(=O)Nc3ccc(OC)c(F)c3)CC2)no1,-1%
COCCN1C(=O)N(CCCc2cccnc2)C(=O)C12CCN(C/C=C/c1ccc(OC)cc1)CC2,2%
O=C(c1cc(F)ccc1F)N1CCC2(CC1)CC(N(Cc1ccccc1)C1CC1)CCO2 (configuration not stated),?
COc1cc(CNC(=O)CN2CCCc3nc(C4CC4)ncc3C2=O)cc(OC)c1,-16%
CC(=O)N1CCC(N2C[C@@H]3C[C@H]2C(=O)N(Cc2cccnc2)c2ccccc2O3)CC1,2%[70.6 µM]
Cc1nc2scc(CC(=O)NC(C)C)n2c(=O)c1-c1cc(C)n(-c2ccc(C(C)C)cc2)n1,-2%
CCc1noc(-c2cccn3c(CNC(=O)c4ccc(OC)cc4)nnc23)n1,5%
COc1cccc(O)c1CN1CCC(C(Cc2ccc(F)cc2)N(C)Cc2cn(C)nc2C)CC1 (configuration not stated),0%
CC(C)c1nc2c(c(-c3ccc(O)cc3)n1)CN(C(=O)c1ccc(Cl)nc1)CC2,2%
O=C(NCCC1CCN(C(=O)Nc2ccccc2F)CC1)c1ccco1,5%
Cc1ncoc1C(=O)N1CCCCCNC(=O)[C@@H]2CCC[C@@H]21,4%
O=C(c1ncn[nH]1)N1CCN(Cc2cn(-c3ccccc3)nn2)CC1,1%
CN(C(=O)c1cc(F)ccc1Cl)C1CCc2nn(C)c(=O)n2CC1 (configuration not stated),-3%
Cc1nc(C(C)C)ncc1C(=O)N1CCN(C)C2(CCNC(=O)CC2)C1 (configuration not stated),4%
COc1cccc(CN2CCCC(NC(=O)Nc3ccccc3OC)C2)c1 (configuration not stated),0%
Cc1cnc(C(=O)NCCc2ncc(C)n2C2CCC2)cn1,3%
CC(C)Oc1ccc(-c2noc(-c3nnn4c3COC(c3ccc(F)cc3)C4)n2)cc1 (configuration not stated),0%
COc1cc(C(=O)N2CCC(Cc3nc(-c4ccc(F)cc4)no3)CC2)cc(OC)c1OC,13µM*
CCN1C(=O)C2(CCN(S(=O)(=O)c3ccc4c(c3)OCCO4)CC2)c2ccccc21,-20%
CCN(CC)C(=O)N1CCCCCCNC(=O)[C@@H]2C[C@@H](c3nc(-c4cccnc4)no3)C[C@@H]21,4%
COCC(=O)N1CCCn2cc(-c3cccc(C#N)c3)nc21,-12%
O=C(CN1CC2CC(C1)[C@H]1CCCC(=O)N1C2)NCc1cccs1 (some centres not stated),1%
Cn1cc(CN[C@H]2[C@H](O)[C@H](O)C[C@@H]2c2cccnc2)cn1,6%[70.6 µM]
Cc1nn(C)c(C)c1CCC(=O)N1CCN(c2ccc(C#N)cc2)C(=O)C1,-1%
COCCN1Cc2[nH]nc(-c3cc(OC)ccc3OC)c2CC1=O,1%[70.6 µM]
COCC(=O)N[C@H]1CC[C@]2(C)CC[C@@H]([C@H](C)C(=O)NCc3cccs3)[C@H](O)[C@H]2[C@@H]1C,2%
CC(C)c1noc(-c2cccn3c(CNC(=O)CC4CCCCC4)nnc23)n1,3%
COc1ccc(CCN2Cc3cc(NC(=O)c4ccc(F)cc4F)ccc3OC(C)C2=O)cc1 (configuration not stated),-16%
CCOc1ccc(NC(=O)c2ccc3c(c2)N(C)C2CCCCN2C3=O)cc1 (configuration not stated),-1%
O=C(Cc1c[nH]c(=O)[nH]c1=O)NC(c1cnc2ccccc2c1)C1CC(O)C1 (configuration not stated),-1%
COCCCNC(=O)CN1CCCc2nc(-c3ccncc3)ncc2C1=O,1%
CN(C)c1cc(N2CCCC(NS(=O)(=O)C3CC3)C2)ncn1 (configuration not stated),1%
CN(C(=O)CCc1nc2ccccc2[nH]1)C1CCc2nn(C)c(=O)n2CC1 (configuration not stated),-2%
CCOCC(=O)N1c2ccccc2CC1c1noc(C(C)C)n1 (configuration not stated),?
CCN(CC)Cc1cnc2c(C(=O)N3CCCC(CCCO)C3)cnn2c1 (configuration not stated),-2%
Cc1nc(CCNC(=O)C2CCCCC2)no1,-7%
CN1CC2(CCN(C(=O)NC(C)(C)C)CC2)CC1C(=O)N1CCOCC1 (configuration not stated),-2%
c1ccc(-c2ccnc(NCC(c3ccncc3)N3CCOCC3)n2)nc1 (configuration not stated),0%
Cc1ccsc1CN1CCCCCNC(=O)CC1c1ccccc1 (configuration not stated),1%
Cc1cn2nc(C(=O)Nc3ccc(OC(F)(F)F)cc3)cc2c(N2CCSCC2)n1,4%
CC(=O)N1CCC(Cc2ccc(C(=O)NC3CCN(Cc4ccccc4)CC3)cc2)CC1,11µM*
# (listing goes on)
SMILES,hNpr1 antagonist
CCNC(=O)CC1CCN(S(C)(=O)=O)C1 (configuration not stated),17%
CC(=O)N1CCC2(CC1)OC(=O)N(Cc1ccccc1)C2(C)c1ccccc1 (configuration not stated),-1%[70.6 µM]
Nc1nc(C2CC(O)C2)cc(N2CCCN(Cc3ccccn3)CC2)n1 (configuration not stated),-1%
CC(=O)Nc1ccc(C2(C(=O)N3CCC(N4CCCCC4)CC3)CCCCC2)cc1,3%
CCN1c2cc(C(=O)Nc3ccc(C(=O)OC)cc3)ccc2C(=O)N2CCCC21 (configuration not stated),0%
CCC1=C(C(=O)OC)C(c2cccc(F)c2)N2C(CC(=O)NCc3cccc(F)c3)=CSC2=N1 (configuration not stated),-27%
Cc1nc(C2CCCN(C(=O)CCCN)C2)cc(N2CCOCC2)n1 (configuration not stated),0%
CCCOc1nccnc1NC1CCN(S(=O)(=O)C2CC2)CC1,0%
